Ab BasE inh: BasE siderophore biosynthesis inhibition. purified BasE, fluorescence polarization binding displacement. inhibition, % (concentration not given with the values). actives 0.1% (n = 84,000). AID 485350;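 active = both replicates above 25% with normal brightness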;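 note: 0% = negative plate control signal and 100% = positive plate control signal; stock transfer was 100 nL into about 30 µL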
LANA-nucl inh: inhibitors of KSHV LANA binding to nucleosomes | AID 720717 | actives 0.3% (n = 51,000) | FITC-LANA1-23 / chicken nucleosome fluorescence polarization; stronger effect = lower value | z-score (concentration not given with the values);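 active = both repeat wells score below -2 in polarization z-score versus plate sample wells, excluding overly bright wells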;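 note: 100 nL library stock added to about 30 µL; numbers are from one replicate; some results filed as inactive read as strong as hits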
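Assay system: FITC-LANA peptide and chicken nucleosomes; input: 240 nM purified chicken nucleosomes (480 nM peptide binding sites), final; also added: 50 nM FITC-LANA1-23 probe; medium: TEN-BT buffer, pH 7.5; doses: pin-transferred compound, 100 nL; times: 10–45 min, room temperature; technique: fluorescence polarization; replication: duplicates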
Active calls of the source: *; . = no result given.

Every second line gives: Ab BasE inh, LANA-nucl inh
- COc1cc(N2CN=c3s/c(=C\C=C\c4ccccc4)c(=O)n3C2)cc(OC)c1OC
  0.8, .
- CCn1nnc2cc(C(=O)OCC(=O)Nc3cc(F)ccc3F)ccc21
  -2.7, .
- CN1CCCN(C(=O)c2ccc3c(c2)OCO3)c2nc3ccccc3nc21
  1.1, .
- CN=C1SC(CC(=O)NCc2ccccc2)C(=O)N1/N=C/c1c(C)nn(Cc2ccccc2)c1C (configuration not stated)
  0.7, .
- Cn1ccnc1SCC(=O)NC(c1ccccc1)c1ccccc1
  -1.7, .
- CC(C)(CO)NS(=O)(=O)c1ccc2c(c1)C(=NO)c1cc(S(=O)(=O)NC(C)(C)CO)ccc1-2
  0.1, -0.67
- S=c1sc2ccccc2n1CN1CCN(c2ccccn2)CC1
  4.2, .
- CC(NC(=O)OCC1c2ccccc2-c2ccccc21)C(=O)O (configuration not stated)
  -1.4, -0.43
- Cc1c(-c2nnnn2-c2ccccc2)cnc2ccccc12
  1.5, .
- CCCCN(CC)c1nc(N)c(C#N)c(CC#N)c1C#N
  -11, .
- Cc1cc(NCn2ncc3ccccc3c2=O)ccc1Br
  -0.9, .
- CCC1NCc2c(sc3c2CCCC3)-n2cccc21 (configuration not stated)
  -2.5, 0.14
- CC(=O)N1CCN(c2ccc(Oc3ccnc4cc(Cl)ccc34)cc2)CC1
  3.3, .
- Cn1cccc1CC(=O)N/N=C\c1ccccc1
  1.3, -0.079
- Cc1c(C#N)c(Sc2ccccn2)nc2ccccc12
  ., -1.1
- O=C(O)C1CCN(c2ncc(C(F)(F)F)cc2Cl)CC1
  ., -0.65
- COc1ccc(NC(=O)NC2CCCN2S(=O)(=O)c2ccc(Cl)cc2)cc1 (configuration not stated)
  0.6, .
- CC(C)N(Cc1nnc(-c2ccccc2)o1)C(=O)/C=C/c1cccs1
  -0.5, .
- CCN(CC)S(=O)(=O)c1cc(C(=O)O)ccc1C
  -2.3, -0.14
- c1ccc(C2=NNC(c3ccccc3)C2)cc1 (configuration not stated)
  1.1, .
- CN(C)c1nnc2c(Cl)cc(C(F)(F)F)cn12
  ., -1.3
- COc1ccc(C(=O)COC(=O)c2ccc(NC(C)=O)cc2)c(OC)c1
  -14, .
- CC(C)NC(=O)CN1CCN(c2nc(Cc3ccc(Cl)cc3Cl)nc3c2nnn3C)CC1
  -3.2, -0.52
- Cc1nn(-c2ccccc2)c2[nH]c(C(F)(F)F)cc(=O)c12
  1.9, 0.003
- O=C(O)c1oc2ccccc2c1-n1cccc1
  ., 0.73
- COc1ccc(C)cc1S(=O)(=O)NNc1nc(C)cc(C)n1
  1.5, .
- Oc1ccccc1CN1CCCN(Cc2ccccc2O)C1
  -1.1, .
- N#CCn1c(COC(=O)c2cccs2)nc2ccccc2c1=O
  0.9, .
- COCCn1c(C)nc2c(c1=O)c1nc3ccccc3nc1n2-c1ccc(Cl)c(Cl)c1
  -0.4, .
- Cc1c(C(=O)N2CCc3ccccc32)sc2nc3n(c(=O)c12)CCC3
  1.7, .
- Cc1snnc1C(=O)Oc1ccccc1-c1nnco1
  0.0, .
- CCOC(=O)c1c(C)n(CC)c2cc(Br)c(O)cc12
  -0.8, -1.2
- O=S(=O)(c1ccc2nsnc2c1)N1CCCCC1
  1.6, 0.16
- CC(=O)N1CCc2cc(NC(=O)CSc3nnc4ccccn34)ccc21
  0.5, -1.3
- CC(C)CNC(=O)CSc1ncnc2ccccc12
  0.2, .
- CCOC(=O)c1c(C)noc1/C(C)=N/OC(=O)Nc1cccc(C(F)(F)F)c1
  -1.2, -1.3
- O=C(NCC1CCCO1)C1c2ccccc2Oc2ccccc21 (configuration not stated)
  1.4, .
- CN(C)c1cc(N=C2CCCN2c2ccccc2)c2ccccc2n1
  -0.2, .
- O=C(O)C1=CC(c2ccccc2)n2nnnc2N1 (configuration not stated)
  1.5, -1.4
- CC(C)c1cc(N=NC(N)=O)cc(C(C)C)c1O
  1.7, 0.18

Some of the entries so far, as labelled records.
Cc1nn(-c2ccccc2)c2[nH]c(C(F)(F)F)cc(=O)c12
  Ab BasE inh: 1.9	LANA-nucl inh: 0.003
CN(C)c1nnc2c(Cl)cc(C(F)(F)F)cn12
  Ab BasE inh: .	LANA-nucl inh: -1.3
CCOC(=O)c1c(C)n(CC)c2cc(Br)c(O)cc12
  Ab BasE inh: -0.8	LANA-nucl inh: -1.2

The listing continues:
Every second line gives: Ab BasE inh, LANA-nucl inh
- CC1Cc2cccc3c(O)cc(=O)n1c23 (configuration not stated)
  -21, .
- CC(C)CNC(=O)N1c2ccccc2Sc2ccccc21
  2.3, .
- Cc1n[nH]c(C)c1-c1ccc(Cl)c(C(=O)O)c1
  3.9, 0.026
- CCNC(=S)n1ncc(C(=O)OCC)c1N
  -0.8, .
- CCC(O)C1=C(c2cccs2)Oc2ccccc2C1c1ccccc1C (configuration not stated)
  -0.6, .
- CN(CCO)Cc1cc(N2CCN(C(=O)c3ccco3)CC2)c2c3c(onc13)-c1ccccc1C2=O
  -6.9, 0.36
- CC(Oc1ccccc1Cl)C(=O)N1CCCc2ccccc21 (configuration not stated)
  2.1, .
- COc1ccc(COn2c(=O)c(C)[n+]([O-])c3ccccc32)cc1OC
  -5.2, 0.62
- Cc1ccc(NC(=O)C(Cc2ccccc2)NC(=O)c2ccco2)cc1 (configuration not stated)
  2.4, 0.63
- O=C(CN1CCc2sccc2C1c1cccs1)Nc1ccc2c(c1)OCO2 (configuration not stated)
  -0.3, .
- O=c1c2[nH]cnc2n(-c2ccccc2)c(=O)n1Cc1ccccc1
  -4.2, 2.7
- CC1=C(/C=C/C(C)=C/C=C/C(C)=C/C=C/C=C(C)/C=C/C=C(C)/C=C/C2=C(C)C(=O)CCC2(C)C)C(C)(C)CCC1=O
  ., 0.21
- O=CNCCCc1nc2ccccc2n1Cc1ccc(F)cc1
  -2.2, 0.35
- O=C1CN(Cc2ccccc2)C(=NCc2ccco2)S1
  -4.2, 0.92
- CCOC(=O)c1sc2nc(CSc3nncn3-c3ccccc3)[nH]c(=O)c2c1C
  -14, .
- CCOC(=O)C1=C(C)NC2=C(C(=O)CC(c3ccco3)C2)C1c1cccs1 (configuration not stated)
  2.0, -0.43
- CCN(C(=O)c1c(-c2c(Cl)cccc2Cl)noc1C)C(Cc1ccccc1)c1ccc(OC)cc1 (configuration not stated)
  ., 0.14
- Cc1ccc2[nH]c3c(c2c1)CCC1C3=NNC1c1ccco1 (configuration not stated)
  -35, .
- CCN(CC)c1cc(Cl)nc(N)n1
  ., -0.36
- O=C(Nc1ccc(Cl)cc1)N1N=C2c3ccccc3CCC2C1c1cccs1 (configuration not stated)
  2.7, .
- CNC(=O)c1ccc(NC(=O)C2=CSCCO2)cc1
  0.0, 0.0095
- CCC(=O)Nc1cccc(NC(=O)c2cc(OC)cc(OC)c2)c1
  -3.4, -0.83
- Cc1c(Cc2ccccc2)c(=O)oc2cc(OC3CCCCC3=O)ccc12 (configuration not stated)
  2.5, .
- O=C(C[C@H]1NC(=O)[C@@H]2CCCN2C1=O)OCc1ccccc1
  ., -0.16
- O=C(CC1CCCC1)NCCc1cn2ccccc2n1
  -0.4, 2
- COc1nc2nonc2nc1OC
  1.1, -0.0045
- O=C(NCC(F)(F)F)Nc1ccccc1
  -0.5, 0.21
- O=c1oc2c3c(ccc2c2ccccc12)OCN(Cc1ccccc1)C3
  -0.5, 0.78
- Cc1noc(-c2ccccc2)c1NC(=O)N1CCOCC1
  2.4, .
- Cc1ccc2c(COC(=O)c3ccc(S(=O)(=O)NCc4ccco4)cc3)cc(=O)oc2c1
  0.3, .
- C/C(N)=C(/C#N)C(=O)CSc1nnc(COc2ccccc2Cl)o1
  -4.5, .
- COc1ccc(-c2nnc(C3CCN(S(=O)(=O)c4ccc5nc(-c6ccccc6)[nH]c5c4)CC3)o2)cc1
  -1.8, -0.6
- O=C1CCC(C(=O)OCN2C(=O)c3ccccc3C2=O)=NN1
  1.1, .
- CCN(CC)CC(=O)Nc1ccc(C)cc1Br
  3.3, -0.99
- Cn1c(=O)cc(N2CCCCC2)[nH]c1=O
  -1.6, 0.55
- CC1(C(=O)NCC(=O)c2cccs2)Cc2ccccc2C(=O)O1 (configuration not stated)
  2.5, 0.35
- CN(C)c1nc(C(C)(C)C)cc2c1C(=O)NC2=O
  2.9, .
- Cc1ccc(C2C(C#N)=C(N)N(c3cccnc3)C3=C2C(=O)CCC3)s1 (configuration not stated)
  0.6, 0.39
- CC(CCC(=O)NC1CCCCC1)C(=O)O (configuration not stated)
  -0.9, 0.54
- O=C1OC(CC(=O)N2CCN(c3ccc(F)cc3)CC2)c2ccccc21 (configuration not stated)
  -1.3, .
- COc1ccc(CCn2cnn3c(=O)c4ccccc4nc3c2=O)cc1OC
  0.7, .
- O=C1CCC(C(=O)OCc2nc3ccccc3s2)N1 (configuration not stated)
  1.8, .
- CCC(CC)(C(=O)O)C(=O)Nc1ccc(SC(F)F)cc1
  1.6, .
- O=C(COC(=O)CSc1ccc(Cl)cc1)Nc1ccc2[nH]c(=O)[nH]c2c1
  -1.6, .
- CC(=O)Nc1ccc(NC(=O)CCC2CCCC2)cc1
  -1.7, -1.1
- CN(C)S(=O)(=O)c1ccc(C(=O)NCc2ccccn2)cc1
  2.3, .
- COc1ccc(CCC(=O)N2C(=O)c3cccc(N)c3C2=O)cc1OC
  1.9, .
- CCNc1nc(NC(C)C)nc(NC(N)NOC)n1 (configuration not stated)
  -0.6, 0.66
- CC1CCC(C(=O)Nc2cc3c(cc2N2CCCCC2)n(C)c(=O)c(=O)n3C)CC1 (configuration not stated)
  1.1, 0.09
- COc1ccc(N(C(=O)c2ccncc2)S(=O)(=O)c2cccs2)cc1
  -1.6, 0.054
- Cc1cccc(NNC(=O)C2CCCCC2)c1
  -1.2, .
- Cc1cc(C(=O)COc2ncnc3c2cnn3-c2ccccc2)c(C)n1C1CC1
  0.6, .
- COc1cccc(OC)c1C(=O)N1CCN(Cc2ccccc2F)CC1
  0.4, -1.1
- COC(=O)c1cc(S(=O)(=O)/C=C/c2ccccc2)c(Cl)cc1Cl
  0.9, .
- CCCN(Cc1nnc(-c2ccccc2Cl)o1)C(=O)c1ccc2[nH]c(C)c(C)c2c1
  -0.7, .
- CN(C)Cc1cccc(C(=O)O)c1
  2.5, 0.82
- CCSc1nnc(NC(=O)CCc2nc3ccccc3s2)s1
  -1.4, .
- COc1cccc(N(C(=O)/C=C/c2ccco2)c2nc3ccccc3s2)c1
  -1.9, .
- O=C1OC2(CCCCC2)OC(=O)C1=Cc1ccc2c(c1)OCO2
  2.9, -0.65
- COc1cc(NC(=O)COc2cc(C)c(Cl)c(C)c2)ccc1NC(=O)c1cc2ccccc2o1
  0.3, .

(next part)
Every second line gives: Ab BasE inh, LANA-nucl inh
- N#Cc1cnn(C(=O)c2ccc(NS(=O)(=O)c3cccs3)cc2)c1N
  0.3, .
- O=C(Cc1cccs1)Nc1nccs1
  -2.8, -0.1
- CCOC(=O)c1ccc(S(=O)(=O)Nc2nn3cnnc3s2)cc1
  -0.2, .
- O=C(Nc1ccc(C(=O)N2CCOCC2)cc1)c1ccc2c(c1)OCO2
  5.4, 0.22
- O=C(O)C1CC=CCC1C(=O)N1CCCC1 (configuration not stated)
  -0.5, -0.48
- CCCCC1=NN(C(=O)C2CC2)C(O)(C(F)(F)F)C1 (configuration not stated)
  -1.6, .
- CCN(CC)C(=O)CSc1nc2ccccc2c(=O)n1CC
  0.2, -0.16
- COc1cc(OC)c2c(O)cc(=O)[nH]c2c1
  0.6, -0.11
- Cc1ccc(NC(=O)C2=CSCCO2)cc1
  0.1, 0.19
- Cc1ccc2[nH]cc(NC(=O)N3CCCCC3)c(=O)c2c1
  1.0, 0.57
- O=C(c1cnc2ccccc2n1)N1CCC(O)(c2ccc(Cl)cc2)CC1
  ., -1.6
- Cc1cc(C(=O)CSc2n[nH]c(N)n2)c(C)n1-c1cccc(S(=O)(=O)N2CCOCC2)c1
  2.7, .
- O=C(Nc1cccc2ccccc12)N1CCC(n2c(=O)[nH]c3ccccc32)CC1
  -1.6, -0.37
- COc1ccc(CC(C)(N)C(=O)O)cc1OC (configuration not stated)
  0.3, -0.86
- O=S1(=O)CCC(Cc2n[nH]c(=S)o2)C1 (configuration not stated)
  0.2, .
- COC(=O)c1scc2c(N3CCC(n4cccc4)CC3)cc(C(F)(F)F)nc12
  -2.1, .
- O=C(Nc1nn[nH]n1)c1ccc(S(=O)(=O)N2CCCCC2)cc1
  -0.8, .
- CC(NC(=O)Nc1ccccc1)C(=O)N1CCc2ccccc21 (configuration not stated)
  2.1, .
- Cc1ccc(-c2nc(C#N)c(NCCCN3CCCC3=O)o2)cc1
  -1.4, .

Two neighbouring entries from above:
Every second line gives: Ab BasE inh, LANA-nucl inh
- COc1cc(N2CN=c3s/c(=C\C=C\c4ccccc4)c(=O)n3C2)cc(OC)c1OC
  0.8, .
- CCn1nnc2cc(C(=O)OCC(=O)Nc3cc(F)ccc3F)ccc21
  -2.7, .

Bioassay records as filed in PubChem.

Only part of the results is shown; rates above refer to the full screens.
